CHT block: human CHT choline transport inhibition; AID 488975; B-score at 10 µM; CHT-expressing cells, membrane potential dye, choline response; active compounds read low; Q9GZV3; 310,000 compounds, 0.86% hits;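 active = B-score over 3 SD under the library average, and starting fluorescence ratio not unusually high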;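 note: choline stimulus applied at its EC90 after an EC20 pre-addition; B-score computed on integrated fluorescence ratio after choline addition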
Target sequence (Q9GZV3 whole entry, looked up): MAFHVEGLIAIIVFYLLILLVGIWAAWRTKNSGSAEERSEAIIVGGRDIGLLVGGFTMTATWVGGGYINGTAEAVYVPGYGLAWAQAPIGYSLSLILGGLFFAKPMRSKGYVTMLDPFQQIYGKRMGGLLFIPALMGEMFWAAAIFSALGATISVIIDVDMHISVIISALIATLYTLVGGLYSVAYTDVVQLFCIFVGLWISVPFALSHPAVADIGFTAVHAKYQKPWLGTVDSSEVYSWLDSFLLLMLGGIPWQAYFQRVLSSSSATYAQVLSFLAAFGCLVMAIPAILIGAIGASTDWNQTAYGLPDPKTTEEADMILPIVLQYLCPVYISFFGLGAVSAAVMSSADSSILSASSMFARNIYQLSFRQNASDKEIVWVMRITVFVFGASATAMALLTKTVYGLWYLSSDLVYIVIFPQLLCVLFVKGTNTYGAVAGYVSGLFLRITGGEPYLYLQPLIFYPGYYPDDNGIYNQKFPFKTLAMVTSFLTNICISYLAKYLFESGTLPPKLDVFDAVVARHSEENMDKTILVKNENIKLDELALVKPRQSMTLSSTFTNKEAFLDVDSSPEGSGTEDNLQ
CHT allo act: allosteric activators of human choline transporter CHT. B-score at 10 µM. 310,000 compounds, 0.49% hits. Q9GZV3. AID 488977. CHT-expressing cells, membrane potential dye, choline EC20; active compounds read high; LV-AA mutant CHT in HEK293 cells;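 active = initial fluorescence not abnormally high and integrated response B-score, plate-corrected, over 3 SD above library mean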
Calls only; i = inactive.

Molecule | CHT block | CHT allo act
COc1ccccc1S(=O)(=O)Cc1ccc(C(=O)NC2CC2)o1 | i | i
O=C(Nc1ccc(S(=O)(=O)Nc2ncccn2)cc1)c1ccccc1NS(=O)(=O)c1ccc(F)cc1 | i | i
COc1ccccc1C(=O)N/C(=C\c1cn(C)c2ccccc12)C(=O)NCCCN1CCOCC1 | i | i
Cc1ccc(Cl)cc1N1CCN(C(=O)CN(C2CCCCC2)S(C)(=O)=O)CC1 | i | i
O=C(CCCNC(=O)c1ccc(Cl)cc1)NCc1ccccc1Cl | i | i
CC(NC(=O)c1ccco1)c1nc(-c2ccccc2)no1 (stereo not given) | i | i
CCCCC1=CC2=CC(=O)C(C)(OC(=O)C3CCCC3)C(=O)C2=CO1 (stereo not given) | i | i
Cc1ccc(NC(=O)Cn2c(=O)c3cccn3c3ccccc32)cc1 | i | i
CCCn1c(SCC(=O)NCCc2ccccc2)nnc1-c1cccnc1 | i | i
Cc1cccc(C)c1NC(=O)CSc1nnc(NC(=O)C2CC2)s1 | i | i
COc1ccc(C(=O)/C=C2\NCC3c4ccccc4CCN3C2=O)cc1 (stereo not given) | i | i
COc1ccc(CN2CCc3ccccc3C2)cc1Br | i | i
CCCCNC(=O)c1ccc2c(c1)ncn2C1CCCC1 | i | i
Cc1cccc(NC(=O)CSc2nnc(-c3ccco3)o2)c1C | i | i
COc1ccc(CN2CCN(CCCc3ccccc3)C(CCO)C2)c(OC)c1 (stereo not given) | i | i
CC(=O)c1ccc(S(=O)(=O)N2CCN(c3ccccc3F)CC2)cc1 | i | i
CCN1CCN(C(=S)Nc2ccc(Cl)cc2)CC1 | i | i
Cc1cc(=O)oc2cc(OC(C)C(=O)NCC3CCC(C(=O)O)CC3)c(Cl)cc12 (stereo not given) | i | i
COc1ccc(NC2=CC(=O)N(C)C2=O)cc1 | i | i
O=c1cc(CN2CC(O)Cc3ccc4ccccc4c32)nc2sccn12 (stereo not given) | i | i
COc1ccc(C2CC(c3cccs3)=NN2C(=O)CCl)cc1OC (stereo not given) | i | i
CC(=O)N1CCOc2ccc(S(=O)(=O)N3CCN(c4cccc(C(F)(F)F)c4)CC3)cc21 | i | i
CCCCCCCC1CC(=O)C=C(C)C1C(=O)OCC (stereo not given) | i | i
O=C(CNC(=O)c1ccco1)NCCCc1ccccc1 | i | i
O=C(CSc1nnc(Cn2cnc3ccccc32)o1)c1ccccc1 | i | i
Cc1ccc(CCNC(=O)C2CC(c3ccccc3C(F)(F)F)=NO2)cc1 (stereo not given) | i | i
Cc1cccc(C)c1N1CCc2cn[nH]c21 | i | i
CCOc1ccc(N2C(=O)Nc3ccccc3C2(O)C(=O)NCc2ccccc2)cc1 (stereo not given) | i | i
CCOC(=O)Cc1csc(NC(=O)CSc2nc3cccnc3n2CC)n1 | i | i
O=C(Nc1nc2ccccc2[nH]1)c1ccc(Cl)cc1 | i | i
C=CCNc1oc(-c2ccco2)nc1S(=O)(=O)c1ccccc1 | i | i
CCOC(=O)NC(=O)c1cn(Nc2ccccc2C(F)(F)F)c(=O)[nH]c1=O | i | i
CC12CCC(CC1=O)C2(C)C (stereo not given) | i | i
CCc1nc(NC(=O)NS(=O)(=O)c2ccccc2C(=O)OC)nc(OC)n1 | i | i
CC(C)Cn1c(C(C)C)nc([N+](=O)[O-])c1S(=O)(=O)c1ccc(F)cc1 | i | i
CSc1nc(C)cc(SCC(=O)Nc2ccc(Cl)cc2Cl)n1 | i | i
CCCCN(C)CCCNC(=O)CN1C(=O)CSc2ccc(S(=O)(=O)N3CCOCC3)cc21 | i | i
Cc1c(C(=O)Nc2ccc3c(c2)CCC3)cccc1[N+](=O)[O-] | i | i
O=C(O)CC(=O)Nc1ccccc1C(=O)O | i | i
COCCSc1ccccc1C(=O)Nc1cc(C)on1 | i | i
CC(=O)c1cccc(OCc2cc(C(=O)NCCC3=CCCCC3)no2)c1 | i | i
COCCN1C(=S)NC(c2cccc(C(F)(F)F)c2)C(C(=O)N2CCOCC2)=C1C (stereo not given) | i | i
O=C(NCc1cccs1)C(=O)NCC1OCCCN1S(=O)(=O)c1cccs1 (stereo not given) | i | i
Cc1cc(C(F)(F)F)c(C#N)c(=O)[nH]1 | i | i
O=C(O)C1CCCCC1C(=O)NCc1ccc2c(c1)OCO2 (stereo not given) | i | i
CC1(C)CC(=O)C=C(NCCO)C1 | i | i
COc1ccccc1CC(=O)Nc1ccc(C(=O)N2CCCCC2)cc1 | i | i
C=CCNC(=O)CN1CCC(O)(c2ccc(F)cc2)CC1 | i | i
COc1ccc(S(=O)(=O)NCc2ccccn2)cc1NC(=O)c1ccccc1 | i | i
O=C(NCc1ccco1)NC(=O)c1csc([N+](=O)[O-])c1 | i | i

(cont.)
Molecule | CHT block | CHT allo act
COc1ccc(CNC(=O)CSc2nc3ccc(C)cc3[nH]2)cc1 | i | i
CN(C)/C=N/c1nc2ncc(-c3ccc(Cl)cc3)c(/N=C/N(C)C)n2n1 | i | i
O=C(NCCCN1CCOCC1)c1sc2cc(Cl)ccc2c1Cl | i | i
Cc1ccc(-c2ccc(=O)n(CCC(=O)N3CCN(Cc4ccccc4)CC3)n2)cc1 | i | i
COC(=O)c1cc2cc(NS(=O)(=O)c3ccc(C)cc3)ccc2s1 | i | i
CC1Cc2cc(/C(O)=C3/C(=O)C(=O)N(CCN4CCOCC4)C3c3cccc(O)c3)ccc2O1 (stereo not given) | i | i
COc1ccc(NC(C)=O)cc1NC(=O)CN1CCN(S(=O)(=O)c2ccc(C(C)C)cc2)CC1 | i | i
O=C(Nc1cccc(C(F)(F)F)c1)C(=O)N1CCCCC1 | i | i
CCOC(=O)c1c(C2CC2)csc1NC(=O)COC(=O)c1cnc(Cl)c(Cl)c1 | i | i
Cc1cccc(C)c1NC(=O)CS(=O)CC(=O)NC1CCN(Cc2ccccc2)CC1 (stereo not given) | i | i
C/C(=N\NC(=O)CNC(=O)c1ccco1)c1ccc(Br)cc1 | i | i
O=S(=O)(Nc1cccc(-c2ccc3nncn3n2)c1)c1ccc(Cl)s1 | i | i
CC(NC(=O)C1CCCN(S(=O)(=O)c2cnc[nH]2)C1)c1ccccc1 (stereo not given) | i | i
COc1ccc(-c2noc(N3CCC(C(=O)NC(C)c4ccccc4)CC3)n2)cc1 (stereo not given) | i | i
Cc1c(C(=O)N(C)C)sc(NC(=O)c2cc([N+](=O)[O-])cc([N+](=O)[O-])c2)c1C#N | i | i
CC(Sc1ccccc1)C(=O)N1CCN(S(=O)(=O)c2ccccc2F)CC1 (stereo not given) | i | i
CC(=O)Nc1ccc(S(=O)(=O)Nc2ccccc2C(=O)N2CCCCCC2)cc1 | i | i
Cc1ccnc(NC(=O)C2CCCN(c3ncnc4c3nc3n4CCCCC3)C2)c1 (stereo not given) | i | i
Clc1ccc(CNCC2CCCO2)cc1 (stereo not given) | i | i
CCOC(=O)CSc1nc2ccccc2c(=O)n1CCN1CCOCC1 | i | i

Additional structures
molecule,CHT block,CHT allo act
C=CCN(c1ccccc1Cl)S(=O)(=O)c1cccc(C(=O)OCC(=O)N(C)C2CCS(=O)(=O)C2)c1 (stereo not given),i,i
Cc1c(C(C)C)c(=O)n(-c2ccc(S(=O)(=O)NC(C)C)cc2)n1C,i,i
CCOCc1nnc(NC(=O)CCS(=O)(=O)Cc2ccccc2)s1,i,i
C/C(=N\O)C(=O)NCc1ccccn1,i,i
COc1ccc(CCNC(=O)CCNS(=O)(=O)c2cccc(Cl)c2)cc1OC,i,i
CC(=O)N1N=C(c2cccc(NS(C)(=O)=O)c2)CC1c1cccs1 (stereo not given),i,i
COc1ccc(Cc2nnc(SCC(=O)N3CCCC(C)C3)o2)cc1 (stereo not given),i,i
O=C(COC(=O)c1cc(-c2ccco2)nc2ccccc12)NCc1ccccc1,i,i
CC(=O)c1c(NCCc2ccccc2)cc(C)oc1=O,i,i
O=C(CCNS(=O)(=O)c1ccccc1)N1CCN(C(c2ccccc2)c2ccccc2)CC1,i,i
CCC1SC(N)=NC1=O (stereo not given),i,i
COc1cc(C(=O)N/N=C/c2sc(N3CCOCC3)nc2-c2ccccc2)cc(OC)c1OC,i,i
OC(COc1ccc(Cl)cc1)CN1C2=NCCCN2c2ccccc21 (stereo not given),i,i
CCN1CC(CN(C)Cc2cn(-c3ccc(C)cc3)nc2-c2ccc(F)cc2)CC1=O (stereo not given),i,i
COc1cc(-c2nc(Cc3ccccc3Cl)no2)cc(OC)c1OC,i,i
Cc1cc(C(=O)Nc2c[nH]c(=O)[nH]c2=O)ccc1[N+](=O)[O-],i,i
CCCCC(c1nnnn1C(C)C)N1CCN(C(=O)c2ccco2)CC1 (stereo not given),i,i
Cc1ccc(C(=O)/C=C/Nc2ccc(S(=O)(=O)Nc3onc(C)c3C)cc2)cc1,i,i
COc1cc2[nH]cc(C(=O)NCc3cccs3)c(=O)c2cc1OC,i,i
O=C(Cn1nc(C(F)(F)F)c2c1CCCC2)Nc1ccc2c(c1)OCO2,i,i
Cc1ccccc1NC(=O)COC(=O)CCc1ccccc1,i,i
COc1cccc(CNC(=O)CN(C)S(=O)(=O)c2ccc(Br)s2)c1,i,i
COc1ccccc1N1CCN(C(=O)c2c(C)cc(=O)oc2C)CC1,i,i
Cc1cc(C(=O)N2CCN(c3ccccc3)CC2)c(C)o1,i,i
CCOc1ccccc1CNC(=O)c1nn(CC)cc1[N+](=O)[O-],i,i
O=C(CN(c1ccc(Cl)cc1)S(=O)(=O)c1ccccc1)N/N=C/c1ccco1,i,i
CCOc1ccc(OCC)c(NC(=O)C(NS(=O)(=O)c2ccc3c(c2)oc(=O)n3C)C(C)C)c1 (stereo not given),i,i
Cn1cc(CNCc2cn[nH]c2-c2ccc(F)cc2)c(-c2ccc3c(c2)OCCO3)n1,i,i
Cc1ccc(/C=C2\SC(=S)N(CCCC(=O)Nc3cccc(C(=O)O)c3)C2=O)cc1,i,i
CCOC(=O)c1c(NC(=O)CSc2c[nH]c3ccccc23)sc2c1CCC2,i,i
O=C(CN(Cc1ccco1)C(=O)CNS(=O)(=O)c1ccc(Cl)cc1)NCc1ccc(F)cc1,i,i
CC1(C)C2CCC(C2)C1(C)N=C1OC(CCl)CS1 (stereo not given),i,i
S=c1[nH]nc(-c2ccco2)n1/N=C/c1ccc(Br)s1,i,i
CCOC(=O)c1c(CN(C)C)n(C)c2ccc(OC(C)=O)cc12,i,i
Cc1ccnc(NS(=O)(=O)c2ccc(C(C)(C)C)cc2)c1,i,i
CCc1ccc(C(=O)C(C)OC(=O)C2COc3ccccc3O2)cc1 (stereo not given),i,i
C=CCn1c(-c2ccc(Cl)cc2)ccc(C#N)c1=O,i,i
Cc1ccc(C(=O)CC(C(=O)O)n2cnc([N+](=O)[O-])n2)cc1 (stereo not given),i,i
O=C(c1ccc2c3c(cccc13)CC2)C1CCCN(C(=O)c2ccc[n+]([O-])c2)C1 (stereo not given),i,i
COc1ccc(-c2c(C#N)c(SCC(=O)Nc3ccccc3)nc3c2CCCC3)cc1,i,i
COc1cccc(N2CCN(C(=O)CN3C(=O)NC(C)(c4ccc5ccccc5c4)C3=O)CC2)c1 (stereo not given),i,i
Cn1c(=O)[nH]c(=O)c2c1nc(N1CCOCC1)n2CCSc1nnnn1-c1ccccc1,i,i
C[N+](C)(C)CCCC(=O)c1ccc2c(c1)OCO2,i,i
O=C(NCC(c1cccnc1)N1CCOCC1)c1cccs1 (stereo not given),i,i
COc1cc(CN2CCN(S(=O)(=O)c3ccc(NC(C)=O)cc3)CC2)cc(OC)c1O,i,i
CCC(C)(C)NC(=O)C(c1cccn1C)N(C(=O)Cn1nnc2ccccc21)c1ccc(OC)cc1 (stereo not given),i,i
O=C(Nc1ccccc1Cc1ccccc1)c1ccc2c(c1)SC1=NS(=O)(=O)CCN12,i,i
COc1ccc(NC(=O)c2cccc3c2C(=O)N(C2CCCCC2)C3)cc1,i,i

In the list so far, 17 have two or more sulfur atoms.
molecule,CHT block,CHT allo act
O=C(Nc1ccc(S(=O)(=O)Nc2ncccn2)cc1)c1ccccc1NS(=O)(=O)c1ccc(F)cc1,i,i
Cc1cccc(C)c1NC(=O)CSc1nnc(NC(=O)C2CC2)s1,i,i
CCOC(=O)Cc1csc(NC(=O)CSc2nc3cccnc3n2CC)n1,i,i
CSc1nc(C)cc(SCC(=O)Nc2ccc(Cl)cc2Cl)n1,i,i
CCCCN(C)CCCNC(=O)CN1C(=O)CSc2ccc(S(=O)(=O)N3CCOCC3)cc21,i,i
O=C(NCc1cccs1)C(=O)NCC1OCCCN1S(=O)(=O)c1cccs1 (stereo not given),i,i
COC(=O)c1cc2cc(NS(=O)(=O)c3ccc(C)cc3)ccc2s1,i,i
O=S(=O)(Nc1cccc(-c2ccc3nncn3n2)c1)c1ccc(Cl)s1,i,i
CC(Sc1ccccc1)C(=O)N1CCN(S(=O)(=O)c2ccccc2F)CC1 (stereo not given),i,i
C=CCN(c1ccccc1Cl)S(=O)(=O)c1cccc(C(=O)OCC(=O)N(C)C2CCS(=O)(=O)C2)c1 (stereo not given),i,i
CCOCc1nnc(NC(=O)CCS(=O)(=O)Cc2ccccc2)s1,i,i
CC(=O)N1N=C(c2cccc(NS(C)(=O)=O)c2)CC1c1cccs1 (stereo not given),i,i
COc1cccc(CNC(=O)CN(C)S(=O)(=O)c2ccc(Br)s2)c1,i,i
Cc1ccc(/C=C2\SC(=S)N(CCCC(=O)Nc3cccc(C(=O)O)c3)C2=O)cc1,i,i
CCOC(=O)c1c(NC(=O)CSc2c[nH]c3ccccc23)sc2c1CCC2,i,i
S=c1[nH]nc(-c2ccco2)n1/N=C/c1ccc(Br)s1,i,i
O=C(Nc1ccccc1Cc1ccccc1)c1ccc2c(c1)SC1=NS(=O)(=O)CCN12,i,i

An excerpt; most or all hits stand in other tables.
